StopGo RLuc – FMDV 2A StopGo reporter, Renilla signal; HEK cells with a luciferase reporter of 2A StopGo recoding; actives 0.32% (n = 120,000); Potency, µM (titrated, usually from 57.5 µM), without a hit: at the highest dose signal change, negative = less light; active means well fitted falling curve with a large enough effect; inconclusive means small, poorly fitted or top-dose-only effect; inactive means no such curve, though single readings can be large or run the other way; further: nearly all actives have a fitted effect of over 55% in size; overnight with compound
2A firefly – lowers the firefly signal of an FMDV 2A StopGo reporter; HEK cells with a luciferase reporter of 2A StopGo recoding; Potency, µM (top dose mostly 57.5 µM), for the others: top-dose signal change, negative = less light; actives 0.23% (n = 120,000); AID 1745856; active = well fitted falling curve with a large enough effect; inconclusive = small, poorly fitted or top-dose-only effect; inactive = no such curve, though single readings can be large or run the other way; further: nearly all actives have a fitted effect of over 60% in size; overnight with compound
Numbers without * were called inactive; ? = inconclusive; & = joins results of further samples; [ ] = dose if it differs, or a comment. On the % scale 0 is the no-effect control and ±100 the full control effect; potency means the concentration at half of the fitted maximal effect. These rows are one share of the data; count on the stated rates, not on these rows.

A first look:
SMILES	StopGo RLuc	2A firefly
Cc1cccc(N2CCN(C(=O)c3cnc(N4CCCC4)nc3C)CC2)c1C	26%	-13%
Fc1ccc(CSc2nc3ccccc3s2)cc1	-1%[1.06 µM]	188%[activator]
CCOC(=O)c1ccc(NC(=O)c2cc3sccc3n2Cc2ccc(Cl)cc2)cc1	-11%	-9%
O=S(=O)(c1ccc(F)cc1)N1CCC(n2c(C(F)(F)F)nc3cccnc32)CC1	20%	18%
Cc1cccc(NCC(=O)Nc2cc(Cl)ccc2-n2cncn2)c1C	10%	-12%
CCOc1ccccc1NC(=O)C1CCN(S(=O)(=O)c2c(C)noc2/C=C/c2ccco2)CC1	-5%	-15%
CC(C)CCn1c(COc2ccccc2)n[nH]c1=S	-9%	24%

The whole of this part, previewed entries included:
SMILES	StopGo RLuc	2A firefly
Cc1cccc(N2CCN(C(=O)c3cnc(N4CCCC4)nc3C)CC2)c1C	26%	-13%
Fc1ccc(CSc2nc3ccccc3s2)cc1	-1%[1.06 µM]	188%[activator]
CCOC(=O)c1ccc(NC(=O)c2cc3sccc3n2Cc2ccc(Cl)cc2)cc1	-11%	-9%
O=S(=O)(c1ccc(F)cc1)N1CCC(n2c(C(F)(F)F)nc3cccnc32)CC1	20%	18%
Cc1cccc(NCC(=O)Nc2cc(Cl)ccc2-n2cncn2)c1C	10%	-12%
CCOc1ccccc1NC(=O)C1CCN(S(=O)(=O)c2c(C)noc2/C=C/c2ccco2)CC1	-5%	-15%
CC(C)CCn1c(COc2ccccc2)n[nH]c1=S	-9%	24%
O=C(CCc1cccc(F)c1)NCc1ccc(F)cc1C(F)(F)F	67%[activator]	5%
COc1ccc(OC)c(NC(=O)CSc2nnc(CN3CCCCC3)n2-c2ccc(F)cc2)c1	23%	31%
CCC(C)NC(=O)c1sc2ncccc2c1-n1c(C)ccc1C (configuration not stated)	-11%	-1%
Cc1ccc2c(c1)c(N1CCCC1=O)c(C(=O)Nc1ccc(F)cc1F)n2C	9%	1%
O=C(NCCO)C(O)(c1ccccc1)c1ccccc1	-8%	-18%
Cc1cnc(C(=O)NCCc2ccc(S(=O)(=O)NC(=O)NC3CCCCC3)cc2)cn1	17%	7%[11.5 µM]
COC(=O)C(NC(=O)C(Cc1ccc(OCc2ccccc2)cc1)NC(=O)C(CC(C)C)NC(=O)OC(C)(C)C)C(C)O (configuration not stated)	10%	9%
CCOC(=O)c1c(-c2ccc(OC)cc2)oc2ccc(OCc3ccc(F)cc3F)cc12	-14%	-13%
CC1CCCN(c2ncnc3c2nnn3C)C1 (configuration not stated)	-11%	-20%
O=C(NCc1ccccc1)c1cc2cc(F)ccc2[nH]1	19%	37%[activator]
COC(=O)CC1=C(C(=O)OC)C(c2ccc(OC)cc2)C(C#N)=C(N)O1 (configuration not stated)	-7%	9%
COc1ccc(S(=O)(=O)NCC(=O)O)cc1F	10%	5%
O=C(O)CNS(=O)(=O)c1ccc(Br)cc1Cl	-2%	-4%
O=C1c2[nH]nc(-c3ccccc3O)c2C(c2ccccc2F)N1CCCO (configuration not stated)	24%	7%
Cc1ccc(/C(C#N)=C\c2cc(C)n(C)c2C)cc1	48%[activator]	3%
CCC(CC)C(=O)Nc1c(C)cc(C)cc1C	6%	5%
COc1ccc(Cn2ccnc2SCC(=O)NCc2ccccc2)cc1	36%[activator]	46%[activator]
Cn1ncc2c(N3CCN(c4ccccc4F)CC3)ncnc21	-18%	-7%
CCN(CC)C(=S)SC(C)c1nc(N)nc(N(C)C)n1 (configuration not stated)	2%[1.06 µM]	40%[activator]
O=C(CSc1ncc(-c2ccc(F)cc2)o1)NC1CCCC1	5%	0%
CCOc1ccc(-c2cc(N3C(=O)Nc4ccccc4N3O)n[nH]2)cc1	25%	22%
Cc1ccc(CS(=O)Cc2ccccc2F)cc1 (configuration not stated)	78%[activator]	113%[activator]
CC(=O)c1c[nH]cc1C	20%	0%
CCCCCn1nc(C(=O)OCC(=O)Nc2cc(C)on2)c2ccccc2c1=O	3%	5%
Cc1cnc(C(=O)O)cn1	25%	0%
CC(=O)OC1(c2ccccc2)CCN(CCc2ccccc2)CC1	-11%[129 µM]	9%[27 µM]
CC(=O)c1cccc(NC(=O)c2sc(-n3nc(C)c(Cc4ccc5c(c4)OCO5)c3C)nc2C)c1	-20%	-10%
CC(C)CCSc1nc2c(c(=O)n(C)c(=O)n2C)n1Cc1ccccc1Cl	-1%	68%[activator]
CC(C)(C)OC(=O)N1CCN(C(C(=O)O)c2c[nH]c3ccc(Cl)cc23)CC1 (configuration not stated)	8%	-14%
Cc1ccc(C(=O)COC(=O)c2cc(-c3cccs3)nc3ccccc23)cc1	-11%	10%
C=CCN1CCc2nc(N)sc2CC1	-6%	-16%
COc1ccccc1-c1ncnn1-c1sc2c(c1C#N)CCCCC2	-2%	17%
COc1ccc(C(=O)Oc2ccc3c(=O)c(Oc4ccc(C(C)(C)C)cc4)coc3c2)cc1OC	9%	0%
O=c1sc2c(s1)SC1CCCCCCCCCCC1S2 (configuration not stated)	11%	3%
O=C(Oc1ccc(F)cc1)c1nc(SCc2ccc(F)cc2)ncc1Cl	?	?
CCOC(=O)N1CCN(C(=O)Cn2ncc3c4ccccc4n(Cc4ccc(F)cc4)c3c2=O)CC1	?	-22%
COC(=O)c1ccc(C)c(S(=O)(=O)NCc2ccc(N3CCCC3)nc2)c1	93%[activator]	5%
COc1cccc2cc(S(=O)(=O)N3CCCCCC3)c(=O)oc12	-2%	4%
CC1Sc2ccc(C(=O)Nc3nc(-c4cccnc4)cs3)cc2NC1=O (configuration not stated)	-9%	15%
CCOc1ccc(C2CCCN2S(=O)(=O)CCN(C)S(=O)(=O)c2ccc(F)cc2)cc1 (configuration not stated)	11%	-17%
Cc1nn(CC(=O)NCCO)c(=O)c2ccccc12	-1%	3%
Cc1cccc(C)c1NC(=O)CSc1nc(CN(C)C)nc2ccccc12	4%	-10%
COc1ccc(N2CCN(C(=O)c3cc4c(=O)oc5ccc(C)cc5c4s3)CC2)cc1	-20%	-40%
Cc1ccc(OCCOc2ccc3ccc(=O)oc3c2)cc1	-18%	8%
CCc1ccc(NC(=O)CSc2ccc(-c3cccs3)nn2)cc1	2%	26%
Cc1ccc(-c2cc(C(=O)NCc3ccccc3)c3c(-c4ccc(C)cc4)[nH]nc3n2)cc1	-10%	-9%
COc1cccc(C2=NN3C(C2)c2cccc(OC)c2OC32CCN(S(C)(=O)=O)CC2)c1 (configuration not stated)	9%	235%[activator]
COc1ccccc1OCCCn1c(C2CC(=O)N(c3ccccc3Cl)C2)nc2ccccc21 (configuration not stated)	0%	50%[activator]
CCc1ccccc1NC(=O)c1nc(-c2ccccc2)oc1C	27%	0%
CCOc1ccccc1NC(=O)N1CCN(C)c2ncccc21	10%	14%
CC(CCc1ccccc1)NC(=O)c1cc2c(Cl)nc3ccccc3c2s1 (configuration not stated)	3%	-9%
CC1CCc2nc3sc4c(c3c(-c3ccc(Cl)cc3)c2C1)CCC4 (configuration not stated)	?	13%
O=C(Nc1cc(F)ccc1F)C1CCN(c2nc3ccccc3o2)CC1	?	?

As a working copy, part of the list above:
SMILES	StopGo RLuc	2A firefly
CC(CCc1ccccc1)NC(=O)c1cc2c(Cl)nc3ccccc3c2s1 (configuration not stated)	3%	-9%
CC1CCc2nc3sc4c(c3c(-c3ccc(Cl)cc3)c2C1)CCC4 (configuration not stated)	?	13%
O=C(Nc1cc(F)ccc1F)C1CCN(c2nc3ccccc3o2)CC1	?	?

Of the compounds above, these have two or more sulfur atoms:
SMILES	StopGo RLuc	2A firefly
Fc1ccc(CSc2nc3ccccc3s2)cc1	-1%[1.06 µM]	188%[activator]
CCN(CC)C(=S)SC(C)c1nc(N)nc(N(C)C)n1 (configuration not stated)	2%[1.06 µM]	40%[activator]
O=c1sc2c(s1)SC1CCCCCCCCCCC1S2 (configuration not stated)	11%	3%
CC1Sc2ccc(C(=O)Nc3nc(-c4cccnc4)cs3)cc2NC1=O (configuration not stated)	-9%	15%
CCOc1ccc(C2CCCN2S(=O)(=O)CCN(C)S(=O)(=O)c2ccc(F)cc2)cc1 (configuration not stated)	11%	-17%
CCc1ccc(NC(=O)CSc2ccc(-c3cccs3)nn2)cc1	2%	26%

The list continues:
SMILES	StopGo RLuc	2A firefly
CC(C)C(=O)Nc1ccc(Br)cc1F	5%	13%
O=C(NC1CCCCCC1)c1nn(-c2ccccc2)c(=O)c2ccccc12	5%	-9%
Cc1cccc(NC(=O)C2CCCN(S(=O)(=O)Cc3ccc(F)cc3)C2)c1C (configuration not stated)	-1%	7%
CCN1CCC2(CC1)OCCN2C(=O)c1cc(=O)c2ccccc2o1	-11%	-16%
CCc1ccc(CNC(=O)c2ccc3c(c2)nc2n3CCC(C)C2)cc1 (configuration not stated)	63%[activator]	130%[activator]
Cc1nc(SCC(=O)Nc2cccc3ccccc23)oc1C	-1%	-9%
O=C(CC1CCCCC1)Nc1ccc2c(c1)-c1ccccc1C2	18%	0%
COc1cc(SC)ccc1C(=O)OC(C)C(=O)c1ccccc1 (configuration not stated)	15%	177%[activator]
CCOc1ccc(C(=O)OCc2c(Cl)cccc2Cl)cc1OC	8%	?
Cc1cnc(C(=O)Nc2cc(Cl)c(NC(=O)c3ccc(S(C)(=O)=O)cc3)c(Cl)c2)cn1	4%	175%[activator]
Cc1ccc(CCNC(=O)C2CCCN(S(=O)(=O)c3ccc4c(c3)oc(=O)n4C)C2)cc1 (configuration not stated)	-5%	-15%
CN1C(=O)C2(SCC(=O)N2c2ccc(Cl)cc2)c2ccccc21 (configuration not stated)	-8%	-6%
CN1C(=O)C2CCCCN2c2ccc(C(=O)NCc3ccccc3Br)cc21 (configuration not stated)	-11%	-12%
CCN(CC)S(=O)(=O)c1ccc2c(c1)N(CC(=O)Nc1c(C)cccc1C)C(=O)CO2	-10%	0%
CC(C)c1ccc2cc(C(=O)N(C)Cc3ccco3)[nH]c2c1	66%[activator]	0%
CNNCc1ccc(C(=O)NC(C)C)cc1	-11%	-7%
COc1cccc2cc(CNCc3c(C)noc3C)oc12	17%	24%
Cc1cc(=O)n2nc(N3CCC(C(=O)NCc4ccc(Cl)cc4)CC3)sc2n1	-14%	-10%
COc1ccc(C)cc1NC(=O)c1oc2ccc(S(=O)(=O)N3CCOCC3)cc2c1C	-11%	-14%
CCOC(=O)C1(NC(=O)c2cc(Br)ccc2F)CCCCC1	-3%	-1%
COc1cc(C(=O)CC2(O)C(=O)N(Cc3ccccc3Cl)c3ccccc32)cc(OC)c1OC (configuration not stated)	122%[activator]	0%
CCc1ccc(NC(=O)CCNC(=O)Cn2cnc3ccccc3c2=O)cc1	-9%	-8%
Cn1cc(C(=O)C(=O)N2CCCC2)c2ccccc21	16%	1%
COC(=O)C1CN(Cc2cn(Cc3ccc(F)cc3)nn2)CCS(=O)(=O)N1Cc1ccc(C)cc1 (configuration not stated)	-3%	-6%
O=C(Nc1cc(C(F)(F)F)ccc1Cl)c1noc2c1CCCCC2	-2%&-8%	39%&23%[activator]
NC1=CC(=O)CC1	15%	12%
Cc1cc2c(cc1NS(=O)(=O)c1cccc(C#N)c1)n(C)c(=O)c(=O)n2C	13%	-8%
O=C(CCc1ncc(-c2ccccc2)o1)NCCc1cccc(F)c1	5%	0%
CCc1ccc(CNC(=O)c2cc(-c3ccc(Cl)s3)nc3ccccc23)cc1	-17%	-15%
CC(=O)Nc1ccc(SCC(O)COc2ccccc2C(C)(C)C)cc1 (configuration not stated)	5%	-21%
CC(=O)Nc1cccc(NC(=O)CSc2cn(CC(=O)N(C(C)C)C(C)C)c3ccccc23)c1	-1%	-19%
CCCC(=O)Nc1c(C(=O)OCC)[nH]c2ccccc12	-1%	5%
COc1cccc(C2NC(=S)NC3=C2CCc2ccccc23)c1 (configuration not stated)	7%	0%
CN(C)C(=O)CNS(=O)(=O)c1ccc(F)c(F)c1	43%	-4%
COc1cc(NC(=O)Cn2nc(-c3ccc(C)c(C)c3)ccc2=O)cc(OC)c1	-5%	-6%
COc1cc(-c2nc3cccc(C)n3c2Nc2ccc3c(c2)OCCO3)ccc1O	-5%	88%[activator]
CCOCCn1c(-n2nc(C)cc2C)nc2c1c(=O)n(Cc1ccccc1F)c(=O)n2C	0%	-6%
COc1cc(C(=O)NCCc2csc(-c3ccc(Cl)cc3)n2)cc(OC)c1OC	6%	-23%
Cc1cccc(NC(=O)c2oc3ccccc3c2NC(=O)c2nn(-c3ccc(F)cc3)ccc2=O)c1	16%	50%[activator]
O=C(O)CC(Cc1ccc(Cl)cc1)C(=O)O (configuration not stated)	-2%	0%
C=CC[N+](C)(C)CC(=O)OC1CC2CCC1(C)C2(C)C (configuration not stated)	-15%	-22%
COc1ccc(C(=O)Nc2cc(-c3nc4ccccc4s3)ccc2OC)cc1	-4%	0%
C=CCSc1nc2c(c(=O)[nH]c(=O)n2C)n1CC(=C)C	1%	11%
Cc1ccc(C(=O)C2CCN(Cc3ccc(C#N)cc3)CC2)c(C)c1	?	?
O=C(Nc1ccccc1I)c1cc[n+]([O-])cc1	-8%	-2%
Nc1c(C(=O)Nc2ccc(Cl)c(C(F)(F)F)c2)sc2nc3c(cc12)N1CCC3CC1	?	?
S=c1[nH]c(-c2ccc(Cl)cc2Cl)cs1	-1%	27%
COc1ccc(C)cc1NC(=O)C1CCCN(S(=O)(=O)c2ccc3c(c2)oc(=O)n3C)C1 (configuration not stated)	7%	-5%
O=c1oc2ccccc2cc1-c1csc(Nc2ccccc2)n1	0%	132%[activator]
CCn1c(CNC(C)c2ccc(F)c(F)c2)nc2cc(S(=O)(=O)N(C)C)ccc21 (configuration not stated)	19%	4%
CN(C)S(=O)(=O)c1ccc(Cl)c(C(=O)Nc2cccc3cccnc23)c1	-12%	-7%
CC(C)=CC1C(C(=O)N(C)CC(=O)NC(C)C)C1(C)C (configuration not stated)	0%	-7%
Cc1oc(-c2cccs2)nc1C(=O)NCCCCN1CCOCC1	-20%	-13%
